Assay outcomes (PubChem)
RanGTP-Impb inh – inhibitors of RanGTP-importin-beta interaction, primary screen, biochemical, FRET, CFP-Ran, YFP-importin-beta, homogeneous; 300,000 tested, 1.1% active; inhibition, % (no concentration beside the values); cell-free CFP-Ran/YFP-importin-beta FRET ratio;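 active = most replicates above 15%; inconclusive = exactly half above 15%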;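 also: 0% = DMSO wells and 100% = Ran loaded with GDP instead of GTP; wells of about 40 µL received 100 nL stock; the first replicate is given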
A1 inh – inhibitors of the anti-apoptotic protein A1, read as caspase activation | MEF A1-2A-BIM cells, Caspase-Glo 3/7 luminescence, 3 h; percent of clofoctol response, vehicle zero | caspase activation, % (test concentration not listed) | 330,000 tested, 0.066% active | AID 2462;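 active = over half of replicate activation scores above 10%, or exactly half above 10 with the replicate mean above 10; inconclusive = replicate mean below 10 yet half the replicates above 10; inactive = over half of replicates below 10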;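 also: wells of about 30 µL received 50 nL stock; many hits fall short of the cut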
T cruzi repl – blocks replication of Trypanosoma cruzi. inhibition, % (concentration not given with the values). 300,000 tested, 1.4% active. T. cruzi beta-gal in NIH3T3, luminescence, 90 h;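 active = mean inhibition across valid replicates above about 55%, limit read from the data; inconclusive = mean below that limit but half or more replicates reach it; inactive = mean below it, under half of replicates reach it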;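 also: signal also drops with host cell toxicity which is not excluded here; 0% = plate median of DMSO wells and 100% = zero luminescence signal; higher percent means less beta-gal luminescence so fewer parasites; stock transfer was 50 nL into about 50 µL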
Ecoli rRNA inh – inhibitors of bacterial rRNA selective over humanized ribosomes; 350,000 tested, 1.6% active; AID 720706; E. coli WT GFP vs humanized-ribosome RFP mutants, fluorescence, 24 h; stronger effect = lower value; DMSO median 0, no signal -100; GFP signal change (wild-type ribosome), % (concentration not given with the values);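 active = significant combined selectivity score with lowered wild-type GFP, culture density cut under 30%, mutant RFP and density less affected; inactive = any of these conditions unmet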; also: one replicate is shown; some compounds called inactive have numbers as strong as hits
Calb FLC – C. albicans growth modulation with fluconazole | growth inhibition, % (test concentration not listed) | AID 1979 | 300,000 tested, 0.57% active | C. albicans CaCi-2 (fluconazole-resistant clinical isolate) + fluconazole, Alamar Blue growth, 48 h;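 active = most replicates above 75%; inconclusive = exactly half above 75%; inactive = most below 75%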;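 also: all wells also contain fluconazole at 8 µg/ml as a sub-toxic cotreatment; 0% = median of DMSO wells and 100% = median of geldanamycin control wells; wells of about 8 µL received 7.5 nL stock; the first replicate is given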
Vif A3G – inhibitors of Vif binding to APOBEC3G peptide, primary screen, biochemical, TR-FRET, GST-Vif 1-94, biotin-A3G peptide, dose response retest (AID 1117319); TR-FRET GST-Vif / biotin-A3G peptide binding; higher % means a stronger effect; test concentration not given here; strong numbers were not always called active; inhibition, %, or IC50 in µM where a hit was titrated; 260,000 tested, 0.57% active;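 active = above the screen mean plus three standard deviations and confirmed in dose response; inconclusive = results disagree or hit not tested in dose response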;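 also: Vif residues 1-94 fused to GST binding biotinylated APOBEC3G peptide 110-148; 0% = full assay without inhibitor and 100% = GST in place of GST-Vif; retest series ran down from 100 µM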
Beta apoptosis – blocks beta cell apoptosis; INS-1E cytokine-induced death, ATP luminescence, 48 h; percent of positive-control rescue, neutral wells zero; protection from apoptosis, % (concentration not given with the values); 300,000 tested, 0.8% active;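 active = all replicates at 75% or more, or half of them and the mean; inconclusive = half reach 75% but not the mean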;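 also: 0% = cytokine-treated negative control wells and 100% = positive control rescue; higher means more ATP so stronger rescue from cytokine killing; wells of about 40 µL received 100 nL stock; the first replicate is given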
MLL AF4-AF9 inh – blocks AF4 peptide binding to human AF9; P42568; inhibition, % at 10 µM; AlphaScreen, biotin-AF4 peptide binding to FLAG-AF9; 350,000 tested, 0.47% active;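 active = every replicate reaching a set inhibition limit, whatever the replicate mean, cut at about 25% in these data; inconclusive = mean inhibition reaches that limit but some replicates miss it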;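 also: 0% = plate neutral control median and 100% = total signal loss; the record names both 10 and 1 µM as test concentration; the first replicate is given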
Target sequence (P42568 whole entry, looked up): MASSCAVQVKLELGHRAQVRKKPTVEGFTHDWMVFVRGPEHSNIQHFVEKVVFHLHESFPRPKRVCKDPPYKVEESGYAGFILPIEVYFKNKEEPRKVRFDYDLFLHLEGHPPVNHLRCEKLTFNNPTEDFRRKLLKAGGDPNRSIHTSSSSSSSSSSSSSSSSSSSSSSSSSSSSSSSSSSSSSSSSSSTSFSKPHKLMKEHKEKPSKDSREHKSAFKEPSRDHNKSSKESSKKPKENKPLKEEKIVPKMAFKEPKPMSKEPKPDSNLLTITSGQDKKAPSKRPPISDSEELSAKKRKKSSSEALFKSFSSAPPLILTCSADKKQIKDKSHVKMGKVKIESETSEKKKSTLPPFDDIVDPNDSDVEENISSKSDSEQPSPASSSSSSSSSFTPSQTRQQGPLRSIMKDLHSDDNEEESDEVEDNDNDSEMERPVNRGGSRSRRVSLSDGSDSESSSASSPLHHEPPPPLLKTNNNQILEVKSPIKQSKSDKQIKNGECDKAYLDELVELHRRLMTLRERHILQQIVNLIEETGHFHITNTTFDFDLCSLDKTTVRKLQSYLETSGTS
Ecoli rRNA inh OD600 – also measured in Ecoli rRNA inh; calls as there; OD600 change, %; measured here: OD600 growth;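 optical density of the mix in the first replicate; 0 = DMSO median and -100 = no signal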
Ecoli rRNA inh RFP – also measured in Ecoli rRNA inh; calls as there; RFP signal change, %; measured here: RFP humanized mutant strains;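 first replicate; 0 = DMSO median and -100 = no signal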
* hit, by the source's call; ? = inconclusive; nt = no result given; & = joins results of further samples. The list is partial. The share of hits here may be higher or lower than overall.

SMILES | RanGTP-Impb inh | A1 inh | T cruzi repl | Ecoli rRNA inh | Ecoli rRNA inh OD600 | Ecoli rRNA inh RFP | Calb FLC | Vif A3G | Beta apoptosis | MLL AF4-AF9 inh
Cc1nnc(SCC(=O)NC2CCCc3c2cnn3-c2ccccc2F)o1 (stereo unspecified) | 0.0 | nt | -7 | 14 | 5 | -1.5 | 1 | nt | nt | -2.2
Cc1ccc(CN2C(=O)CCC2C(=O)NCc2cccnc2)cc1 (stereo unspecified) | 0.8 | -0.5 | -4 | nt | nt | nt | 15 | 4% | 4 | nt
COc1ccc(C(=O)CSc2nnc(CN3CCCCC3)n2-c2ccc(F)cc2)cc1OC | 0.0 | -0.2 | 10 | nt | nt | nt | 6 | nt | 1 | nt
COc1cc(C(=O)OCCCN2CCOCC2)ccc1O | 4.6 | 0.2 | 18 | 11 | 16 | -1.4 | -7 | 5% | -10 | -2.1
O=C(NNC(=O)C1CC1)c1cccc([N+](=O)[O-])c1 | nt | -1.2 | nt | 11 | 15 | 2.8 | -11 | nt | -1 | 0.3
O=C(NN1C(=O)C2C(C1=O)C1C=CC2C12CC2)c1ccccc1Cl (stereo unspecified) | -0.1 | -0.3 | 2 | -2 | -4 | -2.5 | 3 | nt | -5 | -0.7
O=C(O)c1sccc1S(=O)(=O)N1CCOCC1 | nt | 0.5 | nt | 5 | 9 | -1.0 | nt | -15% | -11 | 2.2
COC(=O)c1ccc(NC(=O)C(=O)c2cn(CC(=O)N3CCOCC3)c3ccccc23)cc1 | 0.9 | -0.3 | -10 | -1 | 0 | -3.6 | 7 | nt | 3 | 1.0
NC(=O)c1nsc(C(=O)N(Cc2cccnc2)C(C(=O)NCc2ccc(F)cc2)c2ccc(O)cc2)c1N (stereo unspecified) | 3.0 | 0.1 | -17 | -7 | -5 | 0.4 | 4 | nt | 0 | 6.9
CCCCCOc1ccc(Cn2ccnc2)cc1[N+](=O)[O-] | 7.7 | 0.6 | 62* | -24 | -36 | 0.7 | 22 | nt | -4 | 16
COc1ccc(C(=O)Nc2ccccc2[N+](=O)[O-])cc1S(=O)(=O)N1CCOCC1 | ? | 0.6 | -4 | 0 | 3 | 2.6 | 2 | nt | -20 | -6.2
O=C(Nc1cccc(C(F)(F)F)c1)C1CCCN(c2ncccn2)C1 (stereo unspecified) | -5.5 | 0.1 | 3 | nt | nt | nt | -6 | 3% | 1 | nt
Cc1ccc(/C=C2\SC(=S)N(CCC(=O)NNS(=O)(=O)c3ccccc3)C2=O)cc1 | -3.1 | 0.3 | -1 | 10 | 1 | 3.6 | 1 | 22% | -4 | -0.3
CC(C)(C)n1ncc2c(=O)n(CC(=O)Nc3ccc4c(c3)OCCO4)cnc21 | 8.1 | -0.1 | 8 | nt | nt | nt | -3 | -11% | -7 | nt
CC(=O)c1c(C)[nH]c(C(=O)Nc2cccc(S(=O)(=O)N3CCCC3)c2)c1C | nt | -1.0 | nt | nt | nt | nt | nt | 11% | -9 | 3.4
CCC(C)NC(=O)c1cn(C)c(=O)c2cc(OC)c(OC)cc12 (stereo unspecified) | ? | 0.0 | 6 | nt | nt | nt | 0 | -3% | 6 | nt
Cc1ccn2c(=O)nc(SCC(=O)Nc3cccc4ccccc34)nc2c1 | -2.2 | -0.2 | -2 | -9 | -3 | -2.1 | -5 | 0% | -4 | -1.9
COCCN(Cc1cc2cc3c(cc2nc1Cl)OCO3)C(=O)c1cccc(C)c1 | -3.1 | 0.4 | 6 | -3 | -6 | 4.2 | -4 | ? | 32 | -8.7
Cc1ccc2nsnc2c1N(S(C)(=O)=O)S(C)(=O)=O | -3.5 | 0.0 | -1 | nt | nt | nt | 14 | 5% | -2 | nt
Cn1cc(CCC(=O)N2CCCC(Nc3ccc(F)cc3)C2)cn1 (stereo unspecified) | 3.6 | -0.7 | -8 | -2 | 5 | -2.4 | -9 | 2% | 1 | -14
C[C@H](CO)N1C[C@H](C)[C@@H](CN(C)C(=O)Nc2ccc(C(F)(F)F)cc2)Oc2ccc(NC(=O)Nc3ccccc3)cc2C1=O | nt | 1.5 | nt | -10&5 | -9&-20 | 0.7&-1.1 | nt | -1% | -5 | -2.4&-1.7
N#CC1=C(N)Oc2c(ccc3ccccc23)C1c1cccs1 (stereo unspecified) | -15 | 0.5 | -24 | nt | nt | nt | 3 | 11% | 19 | nt
CCOCCCNC(=O)c1ccc(NC(C)=O)cc1 | -0.8 | -0.4 | -12 | nt | nt | nt | 9 | 4% | -4 | nt
Cc1cc2ccccc2c(=O)n1CC(=O)Nc1ccc2c(c1)OCCO2 | 1.5 | 0.1 | -3 | nt | nt | nt | -5 | 7% | 2 | nt
CCOc1ccc(C(=O)Nc2nnc(NC(=S)Nc3ccccc3)s2)cc1 | -2.4 | -1.6 | 31 | 11 | 15 | 5.8 | 1 | -7% | 4 | -11

One compound at a time (already shown). Values in the order: RanGTP-Impb inh | A1 inh | T cruzi repl | Ecoli rRNA inh | Ecoli rRNA inh OD600 | Ecoli rRNA inh RFP | Calb FLC | Vif A3G | Beta apoptosis | MLL AF4-AF9 inh
CCOc1ccc(C(=O)Nc2nnc(NC(=S)Nc3ccccc3)s2)cc1 in the list: -2.4 | -1.6 | 31 | 11 | 15 | 5.8 | 1 | -7% | 4 | -11
Cc1ccc2nsnc2c1N(S(C)(=O)=O)S(C)(=O)=O in the list: -3.5 | 0.0 | -1 | nt | nt | nt | 14 | 5% | -2 | nt
Cc1cc2ccccc2c(=O)n1CC(=O)Nc1ccc2c(c1)OCCO2 in the list: 1.5 | 0.1 | -3 | nt | nt | nt | -5 | 7% | 2 | nt
CCC(C)NC(=O)c1cn(C)c(=O)c2cc(OC)c(OC)cc12 (stereo unspecified) in the list: ? | 0.0 | 6 | nt | nt | nt | 0 | -3% | 6 | nt

(cont.)
SMILES | RanGTP-Impb inh | A1 inh | T cruzi repl | Ecoli rRNA inh | Ecoli rRNA inh OD600 | Ecoli rRNA inh RFP | Calb FLC | Vif A3G | Beta apoptosis | MLL AF4-AF9 inh
C#Cc1ccc([C@H]2C=C(C(=O)N3CCOCC3)O[C@@H](OCC)[C@@H]2CCCO)cc1 | ? | 0.4 | 12 | -3 | 5 | -1.6 | 11 | -12% | -1 | -2.7&-0.6
COc1ccc(-c2cc(C#N)nc(N3CCN(c4ccccc4)CC3)n2)cc1 | 0.6 | -1.3 | -6 | nt | nt | nt | -1 | -5% | 2 | nt
COc1ccc(-c2csc(N(C)C(=O)c3ccco3)n2)cc1 | -2.1 | -0.2 | -5 | 10 | 11 | 1.8 | -9 | nt | -2 | -7.2
COc1ccc(C(=O)N/N=C/c2ccc(SC)cc2)cc1 | 5.1 | -2.1 | 2 | nt | nt | nt | 1 | 0% | 11 | 3.8
CCN(CC)CCNc1ncnc2c1sc1nc(N3CCOCC3)c3c(c12)CCCC3 | 2.8 | -0.7 | 26 | -23 | -12 | 10 | -1 | 7% | 12 | 7.1
CC(=O)c1cccc(N(CC(=O)NC2CCCCC2)C(=O)c2csnn2)c1 | -3.7 | 0.0 | 7 | nt | nt | nt | 3 | -3% | 1 | 34*
Cc1nc2ccccc2c2oc(C(=O)NCCCN3CCCC3=O)cc12 | 0.9 | 1.3 | -8 | -6 | -3 | -1.4 | 5 | 3% | -5 | -2.9
C/C(=N\NS(=O)(=O)c1ccc(Cl)c([N+](=O)[O-])c1)c1ccc(C)o1 | 0.9 | 0.8 | 9 | nt | nt | nt | ? | 32% | 1 | nt
NS(=O)(=O)c1ccc(CCNC(=O)CNCCc2ccccc2)cc1 | -0.9 | 0.0 | -8 | 17 | 11 | 4.1 | nt | 5% | -2 | -11
COc1cc(/C=C2\S/C(=N/S(=O)(=O)c3ccccc3)NC2=O)c([N+](=O)[O-])cc1OC | -19 | -1.1 | -23 | nt | nt | nt | 11 | 5% | 1 | nt
CCOC(=O)Cc1csc(NC(=O)c2c(-c3ccccc3)noc2C)n1 | -2.7 | 0.0 | -17 | -1 | -6 | -0.3 | -13 | 1% | -6 | nt
O=C(Nc1ccccc1C(=O)O)c1cccc(NC(=O)c2ccccc2Cl)c1 | -2.8 | -0.2 | 1 | -30 | -28 | -0.8 | 1 | nt | -4 | 3.6
O=C(O)c1cc(NC(=O)C2CCCO2)cc(NC(=O)C2CCCO2)c1 (stereo unspecified) | -4.2 | 0.9 | -13 | 6 | 4 | -0.6 | -14 | ? | nt | -3.4
N#Cc1cc2ccccc2nc1SCc1cccnc1 | 0.3 | nt | -4 | 6 | -4 | -2.1 | 9 | -14% | nt | 5.3
Cn1nnnc1Sc1ncnc2scc(-c3ccc(C#N)cc3)c12 | nt | -0.2 | nt | 19 | 8 | 1.9 | nt | nt | -40 | -7.8
CCC(CO)NCC(O)COCc1ccc2c(c1)OCO2 (stereo unspecified) | -2.5 | 0.2 | 6 | 17 | 14 | -1.0 | -6 | 32% | -1 | 0.2
O=C(CC1(CC2=NS(=O)(=O)c3ccccc3N2)CCCC1)NCCc1ccccc1 | ? | 0.8 | 36 | -30 | -49 | 5.5 | -18 | nt | 2 | 4.4
Cc1ccc(C2Nc3ccccc3NC3=C2C(=O)CC(C)(C)C3)c(O)c1 (stereo unspecified) | -5.5 | 0.8 | 30 | -5 | 3 | 17 | 10 | -7% | 18 | -1.0
O=C(CNS(=O)(=O)c1ccc(Br)s1)N1CCCC1 | 1.0 | 1.2 | -3 | nt | nt | nt | -3 | 69% | -9 | nt
O=C(Cn1cc(S(=O)(=O)Cc2cccc([N+](=O)[O-])c2)c2ccccc21)N1CCOCC1 | nt | 0.9 | -5 | 13 | 18 | 1.6 | nt | -8% | -1 | -1.5
O=C(COc1cc(F)ccc1[N+](=O)[O-])Nc1ccc(N2CCCCC2)cc1 | 4.4 | -0.5 | 20 | 0 | 2 | -3.7 | 6 | 5% | 1 | ?
Cc1cc(C)c(S(=O)(=O)Nc2ccc3c(c2)CCC3)c(C)c1 | 1.3 | -1.3 | 23 | -41 | -74 | -23 | 40 | nt | 6 | -0.2
Nn1c(Cc2ccc(Br)cc2)n[nH]c1=S | 1.7 | 1.4 | -13 | 1 | -7 | 1.3 | 11 | -3% | -5 | -3.0
Cc1ccc(NC(=O)CCC(=O)OCCCC(F)(F)C(F)(F)F)cc1 | -0.2 | 0.8 | -7 | nt | nt | nt | 3 | -3% | 1 | nt
CCCC(=O)N(Cc1cc(=O)[nH]c2ccccc12)c1ccccc1OC | -12 | 0.4 | -7 | -16 | -9 | 1.6 | 1 | 0% | -2 | 0.0
Cc1cc(Br)ccc1NC(=O)CN(C)C(=O)COc1cccc2c1OC(C)(C)C2 | nt | -0.1 | 2 | -12 | -20 | 2.2 | -1 | -3% | -7 | 14
O=C(O)CC/C(=N/NC(=O)c1cn(-c2ccccc2)nc1-c1ccccc1)C(=O)O | -4.7 | 1.1 | -19 | -1 | -7 | 2.5 | 1 | 13% | 1 | 1.9
